From PubChem
Sa growth inh – S. aureus growth inhibition at 42 and 30 °C, primary screen, LtaS inhibitor project, RN4220, two temperatures; OD600, 20 h, 42 °C; active compounds read low; relative growth, % (no concentration beside the values); AID 720641, 2013; 170,000 compounds, 0.53% hits;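 active means growth at 42 °C up to 50% and 20 or more points under that at 30 °C, or under 10% at both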;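 further: 300 nL library stock went into each well; scaled to the means of positive and negative controls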
HCMV NEC inh – inhibitors of HCMV UL50-UL53 interaction, biochemical, HTRF; normalized percent inhibition; inhibition, % (concentration not given with the values); 190,000 compounds, 0.15% hits; AID 1918969, 2023;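 active means both replicates at 50% or more, plus weaker picks with an unusually low signal ratio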;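 further: stock transfer was 100 nL into about 20 µL; 0% = negative control wells and 100% = wells with untagged competitor protein; inactives centre near -12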
GIV-Gai inh – inhibitors of GIV peptide binding to Galpha-i3, primary screen, biochemical, fluorescence polarization, FITC-GIV GBA peptide, rat Galphai3; 210,000 compounds, 0.42% hits; 90 min; active compounds read low; scaled: aluminum fluoride 0%, vehicle 100%; percent of control (FP), % (concentration not given with the values);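 active means replicate mean at 85% of control or lower, very high polarization wells dropped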;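 further: wells of about 15 µL received 100 nL stock; the first replicate is given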
Target sequence (P08753 whole entry, looked up): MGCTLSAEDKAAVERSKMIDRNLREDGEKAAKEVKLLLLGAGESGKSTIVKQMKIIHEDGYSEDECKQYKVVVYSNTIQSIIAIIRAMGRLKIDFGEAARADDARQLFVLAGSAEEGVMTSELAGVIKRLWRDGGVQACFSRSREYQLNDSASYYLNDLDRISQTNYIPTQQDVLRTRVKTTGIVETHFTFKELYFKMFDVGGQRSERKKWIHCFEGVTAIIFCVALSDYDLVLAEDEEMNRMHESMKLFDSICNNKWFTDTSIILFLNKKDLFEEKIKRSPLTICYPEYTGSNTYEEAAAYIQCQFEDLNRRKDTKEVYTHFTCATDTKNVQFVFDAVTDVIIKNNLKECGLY
Sa growth inh second temp – second read-out of Sa growth inh, no call of its own (marks repeat the call); relative growth, %; measured here: growth at 30 °C;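 optical density after 20 h as mean of two plates; 100% = untreated growth and lower means inhibition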
* = called active by the depositor; . = not tested or not shown; & = joins results of further samples.

SMILES	Sa growth inh	Sa growth inh second temp	HCMV NEC inh	GIV-Gai inh
O=C(Oc1ccc(-c2ccccc2)nn1)c1ccco1	98.9	105.4	-21.8	103.9
c1ccc(N(c2ccccc2)c2nc(-n3nnc4ccccc43)nc(-n3nnc4ccccc43)n2)cc1	111.0	96.2	-11.4	103.1
CCOc1ccc(C(c2c(O)cc(C)n(CCOC)c2=O)N2CCC(C)CC2)cc1 (stereo unspecified)	86.0	86.6	.	101.1
O=C(NCC(c1cccnc1)N1CCc2ccccc2C1)c1ccccc1 (stereo unspecified)	.	.	-1.6	111.5
CCCNc1cc(C)nc2c(C)c(-c3ccc(OC)c(OC)c3)nn12	.	.	-14.5	104.6
COc1cc(=O)n(-c2ccccc2)nc1C(=O)Nc1ccc(Br)cc1F	.	.	10.1	105.3
CC(C)(C)n1nc(-c2ccc3c(c2)OCCO3)c2ccccc2c1=O	85.4	48.4	-26.0	.
Cc1ccc(NC(=O)C2CCCN(S(=O)(=O)c3cccc4cccnc34)C2)c(Br)c1 (stereo unspecified)	107.2	83.0	.	98.8&107.0
CCOc1cc(-c2nc(-c3ccc(C)nc3OC)no2)cc(OCC)c1OCC	112.0	92.1	-9.5	.
Fc1ccc(OCc2nnc3sc(Cc4ccc5c(c4)OCCO5)nn23)cc1	.	.	5.9	99.8
CCOc1ccccc1C(=O)n1cc(Cl)cn1	104.0	90.1	-10.2	.
COc1cc(C(c2c(C)[nH][nH]c2=O)c2c(C)[nH][nH]c2=O)ccc1OC(=O)c1ccccc1OC	98.3	95.8	20.2	104.0
CN(C)S(=O)(=O)c1cccc(COC(=O)c2n[nH]c3ccccc23)c1	92.0	73.3	-17.8	.
CNS(=O)(=O)c1ccc2c(c1)OCCO2	102.2	96.7	15.1	.
CC1CCC(C(=O)NC(C(=O)OCC(=O)c2ccc(Br)cc2)C(C)C)CC1 (stereo unspecified)	117.0	91.7	-13.8	106.8
C[C@]12C=CC(=O)C=C1CCC1C2C(=O)C[C@@]2(C)C1CC[C@]2(O)C(=O)CO (stereo partly specified)	93.4	87.9	-26.0	.
Oc1oc(-c2ccco2)nc1C=Nc1ccccc1	116.7	64.0	.	105.8
CCS(=O)(=O)N1CCN(c2nc3ccccc3o2)CC1	98.2	90.4	14.3	104.7
O=C(CN1C(=O)CCSc2ccc(S(=O)(=O)N3CCCC3)cc21)Nc1ccccc1Cl	98.0	84.8	.	101.1
CCCS(=O)(=O)c1cnc2cc(C3CC3)nn2c1N	114.0	78.0	-6.3	100.1
CCCCN1C=C(C(=O)OC)C(c2cc(C)ccc2C)C(C(=O)OC)=C1	100.2	95.1	-6.8	104.7
O=C(c1ccccc1)N1N=C2CCCCC2C1(O)C(F)(F)F (stereo unspecified)	114.4	100.4	.	104.6
O=C(Nc1cc(F)ccc1F)C1CCCN(c2ncnc3onc(-c4ccc(F)cc4)c23)C1 (stereo unspecified)	100.7	104.5	3.6	105.1
CC(C)CSc1nccn2nc(-c3ccc(C(C)C)cc3)cc12	.	.	-8.9	102.3
COc1ccccc1CNC(=O)CCS(=O)(=O)c1ccc2c(c1)oc(=O)n2C	89.8	77.7	.	109.4
More compounds.
SMILES	Sa growth inh	Sa growth inh second temp	HCMV NEC inh	GIV-Gai inh
O/N=C(\Cc1nc2ccccc2s1)c1ccccc1	109.0	89.9	-8.9	.
CC1CCCCN1C(=O)CSc1nnc(-c2ccc(Cl)cc2)o1 (stereo unspecified)	81.8	63.9	.	97.4
CC(c1nc2ccccc2[nH]1)N1CCCCC1 (stereo unspecified)	86.9	83.2	-10.3&12.3	102.8&104.2
O=C1S/C(=C\c2ccc3c(c2)OCO3)C(=O)N1Cc1ccccc1F	95.7	94.8	.	103.5
Cc1ccc(Cl)cc1-n1ncc2c(NC3CCCCC3)ncnc21	96.5	68.0	.	105.9
CC(=O)Nc1cc(-c2nn3c(C)nnc3s2)ccc1C	87.9	92.0	3.3	100.5
O=C(O)COCCN1CCCC1=O	120.3	93.4	.	103.3
COC(=O)c1c(NC(=O)CN2CCN(C(=O)c3ccco3)CC2)sc2c1CCC2	100.0	102.0	-11.8	99.5
Cc1ccc(C2CC(=O)Nc3cc4c(cc32)OCCO4)cc1 (stereo unspecified)	91.2	98.9	8.2	104.8
COc1ccc(C)cc1NC(=O)c1nnn(CC(=O)Nc2c(C)cccc2C)c1N	90.2	87.3	.	99.5
CC(C)(CN1CCc2ccccc2C1)NS(=O)(=O)c1ccccc1	100.3	97.1	-1.2	.
COc1ccc2cc(/C=N/NC(N)=O)c(Cl)nc2c1	91.2	93.0	-31.5	.
CC(Cc1ccccc1)C(N)=O (stereo unspecified)	97.7	104.7	15.3	101.4
Cc1ccc(COc2ncnc3cc(Cl)ccc23)cc1	98.0	84.8	-21.5	100.2
CCOC(=O)/C=C1\SCC(=O)N1CCN(C)Cc1ccc(SC)cc1	100.1	93.8	-23.9	.
Cc1nn(CC(=O)NCCc2ccccc2)c(=O)c2cc3occc3n12	87.5	79.9	-0.6	105.1
CCOc1ccc(NC(=O)Cn2c(=O)n(CC(=O)NCCc3ccccc3)c(=O)c3sccc32)cc1	100.8	77.2	-51.4	103.2
C=Cc1ccc(Cn2cc(C(=O)c3ccc(F)cc3)c(=O)c3ccc(C)nc32)cc1	.	.	-12.7	138.5
CCOC(=O)N1CCN(C(=O)CN(Cc2cccc(C)c2)S(=O)(=O)c2ccc(Cl)cc2)CC1	93.5	65.9	.	101.9
Clc1ccc(-c2noc(-c3sccc3Cl)n2)cc1	87.2	82.1	-16.4	101.3
CC(C)c1cc(C(=O)N2CCCC2c2ccc(Cl)cc2)no1 (stereo unspecified)	.	.	-17.8	106.5
CCOc1ccccc1NC(=O)c1ccc(F)c(S(=O)(=O)N2CCN(c3ccc(F)cc3)CC2)c1	120.0	87.1	.	107.9
CCCNC(=O)c1ccc(-c2nc(CS(=O)(=O)c3ccc(C)cc3)c(C)o2)cc1	127.5	85.9	.	104.7
CCOC(=O)c1nnn(CC(=O)NCc2ccc(F)cc2)c1C(=O)OCC	87.1	87.2	-1.6	106.9
O=C(CC1SC(=Nc2ccccc2)N(S(=O)(=O)c2ccccc2)C1=O)Nc1ccccc1 (stereo unspecified)	.	.	-5.2	106.5

14 entries from above, with two lines to a compound.
Order of values: Sa growth inh	Sa growth inh second temp	HCMV NEC inh	GIV-Gai inh
O/N=C(\Cc1nc2ccccc2s1)c1ccccc1
 : 109.0	89.9	-8.9	.
CC1CCCCN1C(=O)CSc1nnc(-c2ccc(Cl)cc2)o1 (stereo unspecified)
 : 81.8	63.9	.	97.4
CC(c1nc2ccccc2[nH]1)N1CCCCC1 (stereo unspecified)
 : 86.9	83.2	-10.3&12.3	102.8&104.2
O=C1S/C(=C\c2ccc3c(c2)OCO3)C(=O)N1Cc1ccccc1F
 : 95.7	94.8	.	103.5
Cc1ccc(Cl)cc1-n1ncc2c(NC3CCCCC3)ncnc21
 : 96.5	68.0	.	105.9
CC(=O)Nc1cc(-c2nn3c(C)nnc3s2)ccc1C
 : 87.9	92.0	3.3	100.5
O=C(O)COCCN1CCCC1=O
 : 120.3	93.4	.	103.3
COC(=O)c1c(NC(=O)CN2CCN(C(=O)c3ccco3)CC2)sc2c1CCC2
 : 100.0	102.0	-11.8	99.5
Cc1ccc(C2CC(=O)Nc3cc4c(cc32)OCCO4)cc1 (stereo unspecified)
 : 91.2	98.9	8.2	104.8
COc1ccc(C)cc1NC(=O)c1nnn(CC(=O)Nc2c(C)cccc2C)c1N
 : 90.2	87.3	.	99.5
CC(C)(CN1CCc2ccccc2C1)NS(=O)(=O)c1ccccc1
 : 100.3	97.1	-1.2	.
COc1ccc2cc(/C=N/NC(N)=O)c(Cl)nc2c1
 : 91.2	93.0	-31.5	.
CC(Cc1ccccc1)C(N)=O (stereo unspecified)
 : 97.7	104.7	15.3	101.4
Cc1ccc(COc2ncnc3cc(Cl)ccc23)cc1
 : 98.0	84.8	-21.5	100.2

The list goes on.
SMILES	Sa growth inh	Sa growth inh second temp	HCMV NEC inh	GIV-Gai inh
O=C(c1ccccc1)N(Cc1cccnc1)Cc1ccc(Cl)cc1Cl	84.2	72.5	-4.3	105.0
Cc1[nH]c(=O)[nH]c(=O)c1NC(=O)CC12CC3CC(CC(C3)C1)C2	82.4	76.7	-11.7	107.0
Cc1csc(NC(=O)CSc2nnc(-c3ccoc3C)o2)n1	119.5	115.6	-2.7	111.3
CNCc1ccco1	104.9	94.3	-14.8	.
O=C(O)CN(CC(=O)O)c1ccccc1	139.4	79.8	-10.8	99.6
CC[C@@H]1[C@H]2CCCCN3[C@H]2[C@H](C[C@H]3[C@@H]2C[C@H](C)C(=O)O2)[C@@H]2[C@H]1OC(=O)[C@H]2C	125.2	89.4	-8.4	.
CCCn1c(=NC(=O)C2CC2)sc2cc3c(cc21)OCO3	106.3	92.6	-5.0	105.3
CCC1(COCc2ccccc2)CCC(c2ccccc2)O1 (stereo unspecified)	96.8	83.2	5.9	.
COCCN1Cc2cccc(C(=O)N3CCC(N4CCCCC4)CC3)c2C1=O	93.6	95.3	8.8	107.6
CCCCC(=O)OCc1cc(=O)n2nc(C)sc2n1	.	.	-25.4	102.0
CCc1ccc2oc(-c3ccc(NC(=O)c4cccc(Cl)c4Cl)cc3)nc2c1	105.3	89.3	-12.3	99.0
COc1cc(NC(=O)c2noc3c2CCC3)cc(OC)c1OC	74.5	52.2	-26.8	92.7
COCCn1c(SC(C#N)Cc2ccc(C)cc2)nnc1-c1cccc(C)c1 (stereo unspecified)	107.8	94.8	8.1	.
O=C(Cn1c(=O)nc(-c2ccccc2)c2ccccc21)Nc1ccc(OCc2ccccc2)cc1	.	.	-21.7	104.2
COC(=O)c1cccc(NC(=O)C2COc3ccccc3O2)c1 (stereo unspecified)	.	.	5.5	103.6
CCN1C(=O)/C(=C\c2ccco2)C(C(=O)OC)=C1C	77.0	95.9	-31.2	97.1
O=C1Nc2ccc(Cl)cc2/C1=C/c1ccccc1	117.2	86.2	-17.9	.
O=C(Nc1ccccc1)C1CCC1	109.7	93.9	-3.6	.
Cc1ccc(Cl)cc1NC(=O)Cn1nc2c(cc1=O)CC(C)CC2 (stereo unspecified)	92.3	84.0	.	96.1
CC1(C)C2CCC1(CS(=O)(=O)Nc1cccc(C(F)(F)F)c1)C(=O)C2 (stereo unspecified)	98.2	103.9	-11.5	.
O=C(NCc1ccc2c(c1)OCO2)C1CCCN(S(=O)(=O)N2CCCCC2)C1 (stereo unspecified)	103.3	94.3	-40.6	107.6
Cc1ccc(NS(=O)(=O)c2ccc3c(c2)N(C)C(=O)CC(=O)N3C)cc1Cl	53.5	32.3	-5.8	100.0
Cc1ccc(S(=O)(=O)Cn2nnnc2C(C(C)C)N2CCSCC2)cc1 (stereo unspecified)	106.5	93.6	-0.7	106.4
CCCSC(=S)NC1CCS(=O)(=O)C1 (stereo unspecified)	82.6	67.3	-17.4	103.4
CCOC(=O)c1cc(-c2ccc(S(=O)(=O)N(CC)CC)s2)on1	106.6	94.4	-64.4	103.8
New compounds follow.
SMILES	Sa growth inh	Sa growth inh second temp	HCMV NEC inh	GIV-Gai inh
Cc1ccc(NC(=O)Nc2ccccc2OCc2cc(=O)n3ccccc3n2)c(Cl)c1	85.0	83.2	.	103.5
O=C(COC(=O)c1n[nH]c2ccccc12)Nc1ccccc1	136.8	89.4	-22.2	.
Cc1c(C)c2ccc(OCC(=O)O)c(C)c2oc1=O	96.7	93.4	-0.6	103.2
CC(=O)Nc1ccc(N2CCN(c3ccc(C(F)(F)F)cn3)CC2)nc1	113.7	85.3	-0.3	100.2
COc1ccc2nc(N(Cc3cccnc3)C(=O)COc3ccccc3)sc2c1	111.9	80.7	.	98.8
CCOC(=O)N1CCc2c(sc3c2c(=O)n(CCc2ccccc2)c(=O)n3CC(=O)Nc2ccc(C)cc2)C1	103.7	80.6	-8.9	108.7
O=C(COc1ccc(F)cc1)Nc1ccc2nc(SCC(=O)N3CCCC3)sc2c1	98.7	94.8	-0.2	108.0
O=C(Nc1nc(-c2ccc(Br)cc2)cs1)c1cc2cc([N+](=O)[O-])ccc2s1	.	.	-13.5	103.8
CC(=O)N1CCCSc2ccc(S(=O)(=O)N3CCC(C)CC3)cc21	.	.	-15.6	94.5
N#CCC(=O)NCC1OCCc2ccccc21 (stereo unspecified)	101.6	101.8	18.7	107.4
COc1cccc(NC(=O)C2CCCN(S(=O)(=O)c3ccc4c(c3)NC(=O)CO4)C2)c1 (stereo unspecified)	.	.	-12.0	115.6
COc1ccc2ncc3c(-c4ccc(C)c(C)c4)nn(CC(=O)NC4CCCC4)c3c2c1	85.5	98.3	.	100.8
C/C(=C\c1ccccc1)C(=O)Nc1cc(C)on1	110.7	102.5	4.0	98.2
O=C1S/C(=C\c2cccs2)C(=O)N1Cc1ccccc1	87.6	80.6	-18.9	100.1
CSC(=Nc1c(C)nn(C)c1C)NC#N	103.4	95.4	0.4	103.8
Nc1ccc(S(=O)(=O)Nc2ccc(I)cc2)cc1	64.0	45.9	-13.3	.
CC(=O)N1CCN(c2ccnc3cc(Cl)ccc23)CC1	122.8	100.8	2.8	98.6
O=C(CCN1C(=O)c2ccccc2C1=O)Nc1cc(C(F)(F)F)ccc1Cl	.	.	-6.0	102.5
CCOC(=O)C1CCN(c2nc3ccccc3n2Cc2ccccc2F)CC1	95.4	88.7	3.6&24.1	109.5&101.1
CCOC(=O)c1cnc2ccc(Cl)cc2c1Nc1ccc(N2CCOCC2)cc1	90.4	84.6	-43.3	108.8
